# From PubChem
# CDC25B-CDK2 inh: human CDC25B-CDK2/CyclinA binding inhibition | z-score (test concentration not listed) | AID 1259370 | HTRF CDC25B-CDK2/CyclinA binding, anti-His/anti-Flag; stronger effect = higher value | P30305+P24941 | actives 0.72% (n = 94,000);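 further: score is relative to mean and SD of negative controls; strong numbers were not always called active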
# TAR Tat displ: HIV-1 TAR-Tat binding disruption; HIV-1 TAR RNA, Tat peptide displacement FRET; stronger effect = higher value; z-score (test concentration not listed); actives 0.6% (n = 100,000); AID 1259389;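 further: score is relative to mean and SD of negative controls; some compounds called inactive have numbers as strong as hits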
# * = called active by the depositor; · = not tested or not shown.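 How the source made its calls: active means z-score from 3 up in half or more of its runs; inactive means the rest.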
SMILES,CDC25B-CDK2 inh,TAR Tat displ
CC(C)(C)CC(=O)Oc1ccc(-c2n[nH]nc2C#N)cc1,-1.6,·
Cc1nc2ncnn2c(Nc2ccccc2)c1C,·,1.2
CCOc1ccc(OCC)c(NC(=O)CCc2nnc3ccc(N4CCCC4)nn23)c1,·,-1.6
O=C(c1ccc(F)cc1)C1CC1C(=O)c1ccc(F)cc1 (centres undefined),-1.4,·
CN(Cc1cnn(-c2ccccc2)c1)C(=O)Cn1cnc(S(=O)(=O)N2CCCCC2)c1,·,0.77
COc1ccc(C2=C(C)C(N3CCc4ccccc43)=NS2(=O)=O)cc1,-0.58,0.34
O=C(CN1C(=O)COc2ccc(S(=O)(=O)N3CCOCC3)cc21)N1CCc2ccccc21,·,0.19
Cc1[nH]nc2c1C(c1ccccc1OCc1ccc(Cl)cc1)C(C#N)=C(N)O2 (centres undefined),-0.1,0.93
O=C1CCCN1c1ccc(S(=O)(=O)Nc2ccc(F)cc2)cc1,·,-0.52
COc1cc2c(cc1-c1coc3c4c(c(OC)cc3c1=O)OC(C)(C)C=C4)OCO2,·,0.44
Cc1c(C(=O)NCc2ccc3c(c2)OCO3)sc2nc(-c3ccc(F)cc3)cn12,1.1,·
CCOc1ccc(N2C(=O)C3N=NN(CC(=O)Nc4ccc(Br)cc4)C3C2=O)cc1 (centres undefined),-1.2,3.3
Cc1n[nH]c(=O)nc1NCc1ccc(Cl)cc1,-0.19,·
Cc1ccc(CNC(=O)CCCN2C(=O)CCn3nc(-c4cccn4C)cc32)o1,·,0.32
NC(=O)c1cccc2c1NC(C(=O)O)C1CC=CC21 (centres undefined),0.33,27*
Clc1ccc2nc(NCc3ccccc3)c3nncn3c2c1,-1.8,0.2
COc1ccc(CN2C(=O)CNC2=O)cc1,0.36,·
CCOc1ccc(/C=C/c2nc(C#N)c(N3CCc4ccccc4C3)o2)cc1,-0.89,0.22
CCOC(=O)N1CCN([C@H]2CS(=O)(=O)C[C@@H]2S(=O)(=O)c2ccccc2)CC1,-1.6,0.91
COC(=O)C1=C(C(=O)OC)SC(=C2C(=S)C(C)(C)N3C(=O)C(=O)c4c(C)c(C)cc2c43)S1,1.3,1
Cc1cc(N2CCN(Cc3ccc4c(c3)OCO4)CC2)n2nc(-c3ccco3)nc2n1,·,1.5
CCOC(=O)c1c(C)[nH]c(C)c1S(=O)(=O)N1CCC(C(=O)NC(C)(C)CC)CC1,·,1.5
CC1=C(C(=O)Nc2ccc(Br)cn2)C(c2ccc(Cl)cc2)C2=C(CCCC2=O)N1 (centres undefined),-0.72,0.01
COc1ccc(OC)c(CNc2nc(-c3cccc(OC)c3OC)no2)c1,·,0.79
Cc1ccc(Cl)cc1NS(=O)(=O)c1cc2c(cc1C)N(C)CCO2,·,0.73
CCc1nn2c(=O)c(S(=O)(=O)Nc3ccc(Cl)cc3)c(C)nc2s1,-1.2,0.28
COC(=O)CCC(=O)O[C@H]1CCC2(C)C(CCC3C2C(=O)[C@@H](O)C2(C)C3CC3OC4(CCC(C)CO4)[C@@H](C)C32)C1 (some centres undefined),·,-0.59
CC1=NS(=O)(=O)c2cc(Cl)ccc2N1,0.58,0.29
CCOC(=O)c1cnc2c(F)cc(F)cc2c1Sc1ccc(Cl)cc1,-0.52,·
Clc1ccc(-c2noc3ncnc(NCC4CCCO4)c23)cc1 (centres undefined),2.3,1.2

# Of the compounds above, these have two or more sulfur atoms:
SMILES,CDC25B-CDK2 inh,TAR Tat displ
CCOC(=O)N1CCN([C@H]2CS(=O)(=O)C[C@@H]2S(=O)(=O)c2ccccc2)CC1,-1.6,0.91
COC(=O)C1=C(C(=O)OC)SC(=C2C(=S)C(C)(C)N3C(=O)C(=O)c4c(C)c(C)cc2c43)S1,1.3,1
CCc1nn2c(=O)c(S(=O)(=O)Nc3ccc(Cl)cc3)c(C)nc2s1,-1.2,0.28

# Following part
SMILES,CDC25B-CDK2 inh,TAR Tat displ
CC(C)c1ccc(OCc2nc3ccc(Cl)cc3[nH]2)cc1,-1.9,-0.38
CC12CN3CC(C)(CN(C1)C(=O)c1ccccc1C3=O)C2=O,-0.85,·
CC1CCN(c2c(NCC3CCC(C(=O)Nc4ccc(F)c(Cl)c4)CC3)c(=O)c2=O)CC1 (centres undefined),-2.2,·
C=CCC1Cc2ccccc2C(C)N1 (centres undefined),-3.9,·
O=C(C1CCCN(c2ncnc3c2nc2n3CCCCC2)C1)N1CCN(c2ncccn2)CC1 (centres undefined),·,1.4
COc1cc(NC(=O)N2CCCC(CN3CCc4ccccc4C3)C2)cc(OC)c1 (centres undefined),·,-0.13
O=C1c2ccccc2-c2onc3c(N4CCN(C(=O)c5ccco5)CC4)cc(NCCO)c1c23,0.78,7.4*
CN1CCN(c2ccc3nnc(CCC(=O)NCc4ccco4)n3n2)CC1,·,0.62
O=C(Nc1ccc(Cl)cc1)C1CC(=O)N(CCc2ccc(Cl)cc2)C1 (centres undefined),3.5,·
O=C(Nc1ccc2oc(-c3ccncc3)nc2c1)C(c1ccccc1)c1ccccc1,-0.69,·
Fc1ccc(-n2cc(-c3ccccc3)c3c(NC4CC4)ncnc32)cc1,0.66,0.98
O=C1NC(c2cccc(Oc3ccccc3)c2)C(C(=O)c2ccc(F)cc2)C(O)(C(F)(F)F)N1 (centres undefined),-0.79,·
CCc1nnc2c(Nc3ccccc3O)nc3ccccc3n12,·,-2.2
COc1ccc(S(=O)(=O)Nc2ccc3oc4c(c3c2)CCCC4)cc1,0.23,1.1
COc1cc(OC)c(NS(=O)(=O)c2ccc(-c3cc(C)no3)s2)cc1Cl,·,-0.63
Cc1ccccc1-c1noc(CSc2nnc(C)n2-c2ccccc2)n1,-2.7,2.1
CCc1ccc(-c2cc(C(=O)Nc3nccs3)c3ccccc3n2)cc1,-4.7,·
COCc1cc(C)nc2sc3c(c12)NC(c1ccc(O)cc1)NC3=O (centres undefined),1.7,2.1
O=C(O)CNc1cc(N2CCCCC2)c2noc3c2c1C(=O)c1ccccc1-3,4.4*,-6
CCn1c(=O)c(N2CCN(C(=O)C3CC3)CC2)nc2ccccc21,-0.97,-1.4

# Reprinted from the part before: 3 compounds, then new ones.
SMILES,CDC25B-CDK2 inh,TAR Tat displ
COCc1cc(C)nc2sc3c(c12)NC(c1ccc(O)cc1)NC3=O (centres undefined),1.7,2.1
O=C(O)CNc1cc(N2CCCCC2)c2noc3c2c1C(=O)c1ccccc1-3,4.4*,-6
CCn1c(=O)c(N2CCN(C(=O)C3CC3)CC2)nc2ccccc21,-0.97,-1.4
Cc1ccc(CSCCNS(=O)(=O)c2ccc3c(c2)OCCO3)cc1,-0.54,2.7
CCOc1ccc(-n2c(-c3ccc(OC)cc3)c[n+]3c2CCCCC3)cc1,0.61,1.9
Cc1nn(C)c(C)c1S(=O)(=O)NCc1cccn1Cc1ccc(Cl)cc1,·,0.67
O=C(CNS(=O)(=O)c1ccc(Br)s1)N1CCN(c2ccccc2F)CC1,0.28,·
Cc1cc2nc(-c3cccc(N)c3C)oc2cc1C,-4.2,1.7
CCc1nonc1NC(=O)c1cccs1,-0.9,-0.52
COc1cc(NC(=O)Nc2nc3ccccc3s2)cc(OC)c1,1.1,1.4
c1ccc2c(c1)nnn2Cc1nnc2sc(-c3ccncc3)nn12,-0.81,2
Nc1ncnc(SCc2nc(-c3ccc(OC(F)(F)F)cc3)no2)n1,-1.3,·
COC(=O)c1ccccc1NC1SC(=O)N(c2ccccc2)C1=O (centres undefined),-1.2,0.97

# Quoted at random: 4 entries already listed, in no set order.
SMILES,CDC25B-CDK2 inh,TAR Tat displ
Cc1ccc(CSCCNS(=O)(=O)c2ccc3c(c2)OCCO3)cc1,-0.54,2.7
CCOc1ccc(-n2c(-c3ccc(OC)cc3)c[n+]3c2CCCCC3)cc1,0.61,1.9
Nc1ncnc(SCc2nc(-c3ccc(OC(F)(F)F)cc3)no2)n1,-1.3,·
Cc1cc2nc(-c3cccc(N)c3C)oc2cc1C,-4.2,1.7

# (cont.)
SMILES,CDC25B-CDK2 inh,TAR Tat displ
Cc1c(C(=O)Cn2nnc(N3CCOCC3)n2)c(C)c([N+](=O)[O-])c(C(C)(C)C)c1[N+](=O)[O-],-2,·
CCN(CC)S(=O)(=O)c1nnc(NC(=O)c2ccco2)s1,-1.9,1.6
CCOc1cc(C2CC(=O)Nc3nc(SCc4ccccc4C)[nH]c(=O)c32)ccc1O (centres undefined),-0.18,1.8
OCCNc1nc(N2CCOCC2)nc(N2CCOCC2)n1,0.37,0.52
CCc1nc2ccc(Cc3ccc4nc(CC)[nH]c4c3)cc2[nH]1,0.86,0.16
O=C(COc1ccc(F)cc1)Nc1nnc2n1CCS2,·,0.75
Cn1c(=O)c2c(nc(Cl)n2Cc2ccc(C(C)(C)C)cc2)n(C)c1=O,-0.7,1.4
Nc1c(-c2nc(-c3ccc(Cl)cc3)no2)nnn1-c1ccc(Br)cc1,·,-0.53
O=C(O)CCCN1C(=O)/C(=C2\SC(=S)N(CCCC(=O)O)C2=O)SC1=S,0.3,·
CCOc1cc(S(=O)(=O)n2ccnc2)ccc1Br,-0.07,1.1
CN(C)/C=C(\C#N)C(=O)Nc1ccc(Cl)cc1Cl,-2.4,·
O=C(CSc1nc2c(c(=O)[nH]1)CSC2)c1ccc(Cl)cc1,-0.12,·
Cc1ccc(C(CNC(=O)c2oc3cc(C)c(C)cc3c2C)N(C)C)o1 (centres undefined),-2.3,0.22
Cc1sc2c(c1C)CSC(C(=O)N1CCN(c3ccccc3F)CC1)=C2,·,-2.8
CNC(=O)c1ccsc1NC(=O)CS(=O)(=O)c1ccc(Cl)cc1,·,0.84
Nc1cc(-c2cccc(F)c2)nn1S(=O)(=O)c1ccc(F)cc1,-1.1,·
O=C(O)C1Cc2ccccc2-c2ccccc2C1,-1.1,·
CC(C)c1nnc2c3c4c(sc3ncn12)CCCC4,0.14,0.83
Cc1nc2sccn2c(=O)c1S(=O)(=O)NCc1ccccc1Cl,·,1.3
O=c1oc2ccc3ccccc3c2cc1-c1csc(NC2CCCCC2)n1,-1.1,·

# Complete entries from above.
# `CCOC(=O)N1CCN([C@H]2CS(=O)(=O)C[C@@H]2S(=O)(=O)c2ccccc2)CC1` across the screens: CDC25B-CDK2 inh = -1.6; TAR Tat displ = 0.91
# `CCc1nn2c(=O)c(S(=O)(=O)Nc3ccc(Cl)cc3)c(C)nc2s1` across the screens: CDC25B-CDK2 inh = -1.2; TAR Tat displ = 0.28

# The listing continues.
SMILES,CDC25B-CDK2 inh,TAR Tat displ
Cc1cc(NC(=O)Nc2csc3c2CCCC3)ccc1Br,-0.78,0.66
O=C(N1CCN(c2ccccc2)CC1)C1(c2cccs2)CCOCC1,·,0.87
COc1ccc(CCN2COc3ccc4c(oc(=O)c5ccccc54)c3C2)cc1,-0.13,-0.57
COC(=O)c1sc2nc(-c3ccncc3)cc(C(F)(F)F)c2c1N,-1.1,-7.6
CC1(C)Cc2ccccc2C(NC(=O)Nc2ccccc2)=C1C#N,-0.42,1.1
O=C(Nc1ccc2oc(-c3cccc(F)c3)nc2c1)c1sc2ccccc2c1Cl,-1.5,·
CN1C(=O)c2ccccc2C(C(=O)N2CCN(C(=O)c3ccco3)CC2)C1c1cn(C)c2ccccc12 (centres undefined),-0.87,·
Cc1ncc(-c2ccc(S(=O)(=O)NC(C)(C)C)cc2)o1,·,0.57
COc1ccc(NC2c3ccccc3C(=O)N2c2ccc(Cl)cn2)c(OC)c1 (centres undefined),-0.99,1.3
C=CCN1C(=O)C(O)(CC(=O)c2ccccc2OC)c2ccccc21 (centres undefined),1.7,0.5
O=C(Nc1cccc(C(F)(F)F)c1)c1cccc(C(F)(F)F)n1,-1.6,·
O=C1NCCCC1c1n[nH]c(=S)n1Cc1ccccc1 (centres undefined),-1.4,·
Cc1ccc(C(=O)CC2(O)C(=O)N(Cc3ccccc3C)c3ccccc32)c(C)c1 (centres undefined),0.74,·
Cc1ccccc1C(=O)Oc1cc(-c2ccc3c(c2)OCO3)cc(=O)c2c(C)oc(C)c12,-2.8,1.7
CCN(CC)CCCNC(=O)C1CCN(c2nnc(-n3cccc3)s2)CC1,1.4,0.93
O=C(O)Cn1cnc(-c2ccc(Cl)cc2)c1,-0.83,0.07
Cc1nn(S(=O)(=O)c2ccc(OC(C)C)cc2)c(C)c1S(=O)(=O)N1CCC(C)CC1,·,-0.03
S=c1[nH]nc(CSc2nc3ccccc3s2)o1,-1.4,·
CC(C)CCNc1ncnc2onc(-c3ccc(Cl)cc3)c12,-0.95,0.85
CCOc1ccc(S(=O)(=O)[C@H]2CS(=O)(=O)C[C@@H]2N2CCOCC2)cc1,-2.7,-0.17
NC/C=C/C(=O)O,-1.4,-0.48
Cc1ccc2c(c1)NC(SCC(=O)Nc1cc(C)[nH]n1)=NS2(=O)=O,·,1.6
O=C(NCc1ccc2c(c1)OCO2)N1CCOCC1,-3.1,0.8
CC(=O)N1N=C(c2ccc(F)cc2)OC1c1cc(C)nc2ccccc12 (centres undefined),·,1
Fc1ccc(CNC(c2ccc(F)cc2)c2nnc(-c3ccccc3)o2)cc1 (centres undefined),·,1.1
CC1CCC(NC(=O)Cn2ncc3c2-c2ccccc2OC3)CC1 (centres undefined),-1.7,-0.04
CCOc1ccc(-n2c(CN3CCNCC3)nc3cccnc32)cc1,·,0.37
COc1ccc(Cl)cc1NC(=O)c1cc2nc(-c3ccco3)cc(C(F)(F)F)n2n1,-1.8,-1.4
CCOC(=O)c1c(C)oc2c1c1c(c3ccccc32)OCN(CC2CCCO2)C1 (centres undefined),17*,-5.4
CC1=CC(C)(C)N2C(=O)C(=O)c3cc(OC(=O)c4ccccc4Br)cc1c32,-0.03,-0.31
COc1ccc(OC)c(CN2CCN(S(=O)(=O)c3ccc4ccccc4c3)CC2)c1,2.8,2.2
CCCCNC(=O)CCCc1nnc2n(C)c(=O)c3sccc3n12,-0.59,0.89
CCOC(=O)CCc1c(C)c2c(C)nn(-c3cccc(F)c3)c2[nH]c1=O,0.18,0.64
Cc1oc(-c2cccs2)nc1Cn1c(=O)cc(C)c2c(C)nn(-c3ccccc3)c21,·,0
Cc1ccccc1Oc1nc2c(c(=O)n(C)c(=O)n2C)n1C,-0.55,·
